Source: PubChem (National Center for Advancing Translational Sciences (NCATS))
NPR1 antag: human Npr1 receptor antagonism; P16066; HEK293 hNpr1 GloSensor cGMP, ANP-stimulated luminescence; Potency, µM (titrated, usually from 46.3 µM), inactives show top-dose activity change, negative = inhibition, usual class: inhibitors; 76,000 tested, 1.6% active; AID 1347048; active = well fitted inhibition curve with a large enough effect; inconclusive = small, poorly fitted or top-dose-only effect; inactive = no such curve, though single readings can be large or run the other way;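 also: nearly all actives have a fitted effect of over 60% in size; nearly all hits also lower the signal before the agonist is added; a reference antagonist and vehicle were the controls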
Target sequence (P16066 whole entry, looked up): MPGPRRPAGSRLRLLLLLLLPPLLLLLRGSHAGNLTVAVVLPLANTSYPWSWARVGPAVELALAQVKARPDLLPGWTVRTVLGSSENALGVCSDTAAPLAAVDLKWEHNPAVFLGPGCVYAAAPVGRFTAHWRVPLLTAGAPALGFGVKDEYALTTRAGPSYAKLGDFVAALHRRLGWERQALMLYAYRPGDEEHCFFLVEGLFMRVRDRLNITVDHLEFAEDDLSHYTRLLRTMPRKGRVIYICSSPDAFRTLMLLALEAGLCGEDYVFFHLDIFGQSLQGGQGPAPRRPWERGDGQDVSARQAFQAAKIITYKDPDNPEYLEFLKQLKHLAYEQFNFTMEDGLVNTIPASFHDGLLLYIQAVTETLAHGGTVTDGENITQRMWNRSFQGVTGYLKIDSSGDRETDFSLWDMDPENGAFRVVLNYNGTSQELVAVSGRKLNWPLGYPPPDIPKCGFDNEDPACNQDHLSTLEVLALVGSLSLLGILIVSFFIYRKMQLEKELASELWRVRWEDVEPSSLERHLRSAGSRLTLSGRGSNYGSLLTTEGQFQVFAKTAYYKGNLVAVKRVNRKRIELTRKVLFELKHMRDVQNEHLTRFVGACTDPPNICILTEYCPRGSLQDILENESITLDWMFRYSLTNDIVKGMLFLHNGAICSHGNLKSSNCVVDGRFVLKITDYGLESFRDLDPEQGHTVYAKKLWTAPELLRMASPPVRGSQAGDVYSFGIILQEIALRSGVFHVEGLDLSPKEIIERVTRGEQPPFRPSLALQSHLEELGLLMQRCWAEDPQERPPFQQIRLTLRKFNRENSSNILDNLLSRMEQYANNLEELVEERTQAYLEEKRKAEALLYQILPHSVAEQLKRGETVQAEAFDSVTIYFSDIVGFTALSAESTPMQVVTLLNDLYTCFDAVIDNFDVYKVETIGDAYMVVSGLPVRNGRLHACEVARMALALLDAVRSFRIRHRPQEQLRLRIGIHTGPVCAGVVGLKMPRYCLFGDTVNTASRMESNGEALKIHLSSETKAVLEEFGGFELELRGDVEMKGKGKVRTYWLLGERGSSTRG
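Compound pre-incubated 30 min at room temperature on GloSensor-loaded HEK293 cells stably carrying hNpr1 and the pGS-40F cGMP biosensor. Stimulation uses hNppA at 0.1 nM final; luminescence is taken at baseline and 20 min post-agonist.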
An asterisk follows results filed as active; ? = inconclusive; [ ] = another dose, or the depositor's remark. % is scaled to controls: 0 for no effect and ±100 for the full control effect; potency is read from the fitted curve at half-maximal effect.

SMILES	NPR1 antag
CCn1nc(C)c(CNC(=O)C2CCN(C(=O)N3CC4CC(C3)[C@H]3CCCC(=O)N3C4)CC2)c1C (some centres not stated)	-1.6%
CC(C)NC(=O)N[C@H]1CCN2C(=O)c3cc(-c4ccc(F)cc4F)ccc3NC(=O)[C@H]12	-5.7%[70.6 µM]
COc1ccc(C(=O)N[C@H]2CO[C@H]3[C@@H]2OC[C@H]3OCC(N)=O)cc1	2.8%[70.6 µM]
O=C1NC2(CCN(Cc3cccnc3)CC2)Oc2ccccc21	-6.2%[70.6 µM]
O=c1c2c(CO)c(-c3ccc(F)cc3)nn2ccn1CCc1ccccc1	?
COCC1(CNC(=O)c2ccc(OC)cc2)C[C@@H](O)[C@@H](O)C1 (some centres not stated)	-0.3%[70.6 µM]
CC1(CCCCN2CCOCC2)COc2ccc(C(=O)NCc3ccco3)cc2N1 (configuration not stated)	-5.9%[70.6 µM]
CN1CCN(CCCNc2nc(CO)nc3ccccc23)CC1	4.5%
COCCn1c(C)cnc1CCNC(=O)C1(c2ccc(OC)cc2)CC1	2.2%
O=C(Nc1ccc(Cl)cc1)C1=NO[C@@H]2CN(c3ccccc3)C[C@H]12	-10.3%[70.6 µM]
O=C(c1ccco1)N1CCC(OC2CCN(Cc3ccccc3)CC2)CC1	5.6%
O=C1CCN(C(=O)c2ccco2)CCCC(C(=O)NCc2ccccc2)CCN1 (configuration not stated)	-7.1%
Cc1nc(-c2c3n(c(=O)n(CC(=O)Nc4ccccc4Cl)c2=O)CCCCC3)no1	10.9%
COCC(=O)NCc1cc2n(n1)CCCN(Cc1cc3ccccc3s1)C2	0.6%
CN(CC1CCOC1)C(=O)Nc1c(F)cccc1F (configuration not stated)	-0.2%
c1ccc(C2(c3ccccc3)CCCN(Cc3ncccn3)C2)cc1	-6.6%
CCc1ccccc1NC(=O)Cn1c(=O)c(-c2noc(C)n2)c2n(c1=O)CCCCC2	-4.4%
COc1cccc(CNC[C@H]2O[C@H](Cc3cc(-c4ccccc4)on3)CC[C@@H]2O)c1	-27.4%[70.6 µM]
O=C(c1ccccc1F)N1CC(Oc2ccc(-c3nc(-c4ccccc4)no3)cc2)C1	7.08µM*
CSCCCN1C(=O)CC[C@H]2CN(C(=O)c3cccnc3)CC[C@H]21	7.3%
CCOc1ccc(NC(=O)Cn2cccc2-c2nc(-c3ccc(F)cc3)no2)cc1	7.5%
O=C1Cc2c(-c3ccccc3)n[nH]c2CN1CC1CCOCC1	-9.3%[70.6 µM]
COC[C@H]1CCCN1Cc1nc(C2(O)CCN(C(=O)C3CCOCC3)CC2)cs1	0.9%[70.6 µM]
Cc1ccccc1OCc1nc(C2CN(C(=O)C(C)c3ccccc3)C2)no1 (configuration not stated)	-18.3%
Cc1ncoc1C(=O)N[C@H](c1ccc2c(c1)CCO2)C1CC(O)C1 (some centres not stated)	7.7%

Next part; the last seven above are carried over.
SMILES	NPR1 antag
O=C(c1ccccc1F)N1CC(Oc2ccc(-c3nc(-c4ccccc4)no3)cc2)C1	7.08µM*
CSCCCN1C(=O)CC[C@H]2CN(C(=O)c3cccnc3)CC[C@H]21	7.3%
CCOc1ccc(NC(=O)Cn2cccc2-c2nc(-c3ccc(F)cc3)no2)cc1	7.5%
O=C1Cc2c(-c3ccccc3)n[nH]c2CN1CC1CCOCC1	-9.3%[70.6 µM]
COC[C@H]1CCCN1Cc1nc(C2(O)CCN(C(=O)C3CCOCC3)CC2)cs1	0.9%[70.6 µM]
Cc1ccccc1OCc1nc(C2CN(C(=O)C(C)c3ccccc3)C2)no1 (configuration not stated)	-18.3%
Cc1ncoc1C(=O)N[C@H](c1ccc2c(c1)CCO2)C1CC(O)C1 (some centres not stated)	7.7%
O=C(Nc1ccc(C2(C(=O)NCc3cccc(Cl)c3)CCC2)cc1)C1CC1	-3.2%
Cc1ccc(-c2noc([C@@H]3Cc4nc[nH]c4CN3C(=O)CCC(=O)O)n2)cc1	-2.9%[70.6 µM]
c1ccc(Nc2cc3c(cn2)CN(Cc2ccccn2)CCN3)cc1	-9.7%[70.6 µM]
COc1cccc(CNC(=O)CC2CCCCN(C)C2=O)c1OC (configuration not stated)	13.6%
CC(C)N1C[C@H](O)C[C@H]1c1nnc2n1CCN(C(=O)COc1ccccc1)CC2	0.5%
O=C(c1cscn1)N1CCCC(CCc2cccc(F)c2)C1 (configuration not stated)	1.5%
CN(C)C[C@@H]1CN(C)C[C@H]1NS(=O)(=O)c1ccc(C(F)(F)F)cc1	1.9%
CN1C[C@H](NCc2nccs2)CCC[C@@H](C(=O)N(C)Cc2cccnc2)CC1=O	0.5%[70.6 µM]
COc1ccc(-c2cc(C[C@H]3CNCC[C@H]3CC(=O)N(C)Cc3ccccc3)no2)cc1	-22.5%[70.6 µM]
COc1ccc2[nH]c(C(=O)N3CCCN(S(=O)(=O)c4ccccc4)CCC(=O)NCC3)cc2c1	-1.2%
O=C1CC(NCc2ccoc2)CN1CCc1cccc(Cl)c1 (configuration not stated)	4.4%
COc1ccc(CN2C(=O)CO[C@H](c3ccc(NC(=O)Nc4ccccc4)cc3)[C@H]2CO)cc1	-2.0%
O=C(C1CCCCC1)N1CC[C@H]2COC(=O)N2c2cc(F)ccc2C1	0.7%[70.6 µM]
COc1ccc(-c2nc3c(C)cccc3cc2CN2CC[C@@H](O)C2)cc1	-1.5%
COc1ccc(NC(=O)NC[C@H]2O[C@@H]3C[C@@H](CC(=O)NCc4nccn4C)O[C@@H]3[C@@H]2O)cc1	3.0%
CNC(=O)[C@@H]1CN(C(=O)c2nccc3ccccc23)C[C@H]1COC	4.9%
CCOc1ccc(NC(=O)C2CCN(C(=O)c3nnn4c3COC(c3ccc(C)cc3)C4)CC2)cc1 (configuration not stated)	-10.2%
Cc1ccc(N2CC(c3noc(C4CCN(C(=O)c5ccccc5)CC4)n3)CC2=O)cc1 (configuration not stated)	-11.5%
O=C(CCCn1cnnn1)N[C@@H]1COCC[C@@H]1OCC1CCC1	3.2%
Cc1ccccc1C(=O)N1CCC2(CC1)OCC(C(=O)N1CCOCC1)N2C(=O)c1ccccc1 (configuration not stated)	-2.5%
O=C(NCC1CCCCC1)c1ccc2c(c1)N(S(=O)(=O)c1ccccc1)CC2	-4.5%
COc1cccc(C(=O)N2CCC(N3C[C@H](O)C[C@H]3C(=O)N3CCc4ccccc43)CC2)c1	1.5%
O=C1COCC2(CN1Cc1cccc(OC(F)(F)F)c1)CN(c1ccccc1F)C2	0.3%[70.6 µM]
Clc1ccc(-c2nnc([C@H]3CCN(Cc4ccccc4)C3)o2)cc1	-26.3%[70.6 µM]
COc1ccc(-c2nnc3n2CCN(C(=O)c2ccc(Cl)nc2)C3)cc1	0.4%

The results go on:
SMILES	NPR1 antag
C[C@@H](NC(=O)c1ccc(Cl)cc1)c1c(-c2ccc(F)cc2)noc1C(=O)O	-0.3%[70.6 µM]
FC(F)(F)c1ccc(N2C3CCC2CN(Cc2ccc(-c4cccs4)cc2)C3)cc1	0.0%
CN(Cc1cccc2[nH]ccc12)C1CCc2nn(CC3CC3)c(=O)n2CC1 (configuration not stated)	1.8%
CN1C[C@H](NCC2CC2)CCC[C@@H](C(=O)N(C)Cc2cccnc2)CC1=O	0.2%[70.6 µM]
CCC(=O)N1CCN(c2nc3c(s2)CC(C(=O)Nc2ccc(CC)cc2)CC3)CC1 (configuration not stated)	-14.8%
Cc1cc(C)cc(C(=O)N2CC(C(=O)NC3CCCCC3)C3(CCOCC3)C2)c1 (configuration not stated)	0.2%
Cc1cc(N2CCCN(c3ccncc3)CC2)n2nc(C)c(C)c2n1	1.1%
CO[C@H]1C(=O)N(C2CCN(C(=O)c3cnccn3)CC2)[C@H]1c1ccncc1	-0.5%
COCCN1CCCN(C(=O)c2ccccc2Cl)c2ccccc21	-15.5%
O=C(Cc1ccccc1F)N1CC2CC(C1)[C@H]1CCCC(=O)N1C2 (some centres not stated)	0.7%
O=C(c1cccc(OC2CN(Cc3cccnc3)C2)c1)N1CCCC1	4.9%
N#Cc1cccc(CN2C[C@@H](CO)[C@H](C(=O)NC3CC3)C2)c1	-0.1%
CN(C)c1nc(-c2ccccc2)nc2c1CCN(C(=O)[C@@H](O)c1ccccc1)C2	1.0%
COc1cccc(-c2cc(C3CCN(S(=O)(=O)c4ccc(C(C)=O)cc4)CC3)[nH]n2)c1	14.1µM*
CCc1noc(-c2ccn3c(CNC(=O)Cc4ccccc4Cl)nnc3c2)n1	3.1%
COCC1CN(C(C)=O)CC12CCN(Cc1ccc3[nH]ccc3c1)CC2 (configuration not stated)	-0.9%
O=C(C1CCC1)N1CCC(O)(c2csc(CN3CCc4ccccc4C3)n2)CC1	?
CNC(=O)[C@@H]1CN(C(=O)C2(c3ccc(OC)cc3)CC2)C[C@H]1COC	-9.2%
COc1ccc(C2Cn3nnc(-c4noc(-c5ccc(C)s5)n4)c3CO2)cc1 (configuration not stated)	0.5%
CN1CCC(N2CC[C@H](c3nnc(-c4ccc(Cl)cc4)o3)C2)CC1	4.5%[70.6 µM]
COCCOC1CCOC2(CCN(C(=O)C3(c4ccc(OC)cc4)CC3)CC2)C1 (configuration not stated)	4.9%
COCC(=O)N1CCC(N(Cc2cccnc2)C2CCOCC2)CC1	-19.9%
COc1cccc(C(=O)N2CCC(C(NC(=O)c3ccccc3C)C(=O)NCC(C)C)CC2)c1 (configuration not stated)	3.7%
O=C(NCc1ccc(F)cc1)c1cnc2c(c1)N([S+](=O)([O-])c1cccnc1)CCC2	0.0%[70.6 µM]
O=c1[nH]nc2n1CCN(Cc1cc(F)c(F)c(F)c1)CC2	0.4%

More records.
SMILES	NPR1 antag
CC(C)NC(=O)N1CCC(c2noc(-c3cnccn3)n2)C1 (configuration not stated)	-1.6%
CCN(CCNC(=O)C1CCN(c2cn[nH]c(=O)c2)C1)Cc1ccccc1 (configuration not stated)	2.4%
COCCNC(=O)c1ccc(OC2CCN(C/C=C/c3ccco3)CC2)c(Cl)c1	0.5%
O=C1CC2CCCC(C1)N2C(=O)c1cccc(Cl)c1	4.2%[70.6 µM]
COc1ccccc1OCCC1CCN(C(=O)Cc2c[nH]c3ccccc23)C1 (configuration not stated)	-28.8%
O=C(NC1CCCCC1)N1Cc2[nH]cnc2C[C@H]1c1nc(-c2ccccc2)no1	-15.7%[70.6 µM]
CC(C)CCN1CCNC(=O)C1CC(=O)N(C)Cc1nc2ccccc2[nH]1 (configuration not stated)	-1.9%
O=C(O)c1ccccc1C(=O)N[C@H]1CO[C@H]2[C@@H]1OC[C@@H]2n1nnnc1Oc1ccc(-n2cncn2)cc1	0.6%
COc1ccccc1C(=O)N1CCC(c2n[nH]c(=O)n2-c2ccccc2)CC1	14.1%
Cc1nn2c(c1-c1cccc3cn[nH]c13)N(C(=O)c1cccc(Cl)c1)CCC2	-1.2%[70.6 µM]
COc1ccc(CC(=O)NCC(=O)N2CCN(c3ccccn3)CC2)cc1	3.9%
CCC(=O)N1CCC(CC)(N2CCN(S(=O)(=O)c3cccc(C(F)(F)F)c3)CC2)C1 (configuration not stated)	0.6%
Cc1cc(C)n2nc(C(=O)N3CCN4C(=O)CN(C)C(=O)C4C3)cc2n1 (configuration not stated)	1.1%
O=C(NCC1CC1)c1cn2ccnc(-c3ccccc3)c2n1	-3.1%
COc1cccc(-c2nc3c([nH]2)CC(C)(C)CNC3=O)c1OC	-10.3%
COc1ccc(-c2ccc3nnc(CNC(=O)c4ccoc4)n3n2)cc1	1.5%
O=C(NCc1cccnc1)c1nc(-c2ccccc2)c2ccccn12	-16.2%[70.6 µM]
Cn1c(CCNC(=O)C2Cn3cccc3C(=O)N2)nc2ccccc21 (configuration not stated)	1.1%
CN(CC1CCOCC1)C(=O)NCc1cccc(F)c1	-8.0%
CN1[C@@H](CCC(=O)NCc2ccco2)CNC(=O)[C@@H]2[C@H]1CCN2Cc1ccccc1	2.5%[70.6 µM]
CCc1ccc(C(=O)N2CCN(C(=O)c3nnn4c3COC(c3ccc(OC)cc3)C4)CC2)cc1 (configuration not stated)	?
CCCCCC(=O)Nc1nc2c(s1)C[C@@H]1[C@](C)(CO)[C@H](O)CC[C@@]1(C)[C@@H]2CC(=O)NCc1cc(F)cc(F)c1	-2.9%
CC1(COc2ccc3[nH]ccc3c2)COc2ccc(C(=O)NC3CC3)cc2N1 (configuration not stated)	?
O=C1N(C2CCNCC2)C(c2ccccc2)C12CCCC2 (configuration not stated)	-8.9%
CCCN(CC1CCOC1)C(=O)Nc1cc(C)ccc1OC (configuration not stated)	-2.6%

Continuation:
SMILES	NPR1 antag
CN(C)CC1(COc2cccnc2)C[C@@H](O)[C@@H](O)C1 (some centres not stated)	-2.4%[70.6 µM]
CC(=O)Nc1cccc(C(=O)NCc2nnc3ccc(-c4ccccc4)nn23)c1	-7.5%
CC(C)NC(=O)N1Cc2ccccc2OC2(CCN(C)CC2)C1	-12.4%
Cc1nnc(-c2cc(-c3cccc(CO)c3)ccn2)n1Cc1cccnc1	2.1%[70.6 µM]
COc1ccc(CC(=O)N2CCC[C@H]2c2nc(-c3ccc(OC)c(OC)c3)no2)cc1Cl	-11.4%
CCOC(C)c1ccc(-c2cc(C)n[nH]c2=O)cc1 (configuration not stated)	1.1%
N[C@@H](Cc1cnc[nH]1)C(=O)N1CCC2(CC1)CN(CCOc1ccccc1)C(=O)O2	4.3%

NPR1 antag: what is marked active above
SMILES	NPR1 antag
O=C(c1ccccc1F)N1CC(Oc2ccc(-c3nc(-c4ccccc4)no3)cc2)C1	7.08µM*
COc1cccc(-c2cc(C3CCN(S(=O)(=O)c4ccc(C(C)=O)cc4)CC3)[nH]n2)c1	14.1µM*

This is a subset (hit frequency here may not be typical).
